Measles inh: inhibitors of measles virus growth in infected cells | infected Vero cells, GFP fluorescence, 64 h; active compounds read low | z-score (concentration not given with the values) | 33,000 tested, 0.1% active;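 active = z-score under -3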;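 also: score is relative to mean and SD of the compound wells of a plate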
Numbers without * were called inactive.

O=C1C2CCCCC2C(=O)N1c1cccc2ccccc12 (centres undefined)
  Measles inh: 0.01
COc1cc2c(cc1OC)CN(C(=O)C(c1ccccc1)c1ccccc1)CC2
  Measles inh: -0.78
CCOC(=O)C1C(=O)C=C(c2cccs2)CC1c1ccccc1C (centres undefined)
  Measles inh: 0.58
COc1cccc(-c2cc(C(N)=O)on2)c1
  Measles inh: 0.98
C#CC(O)(c1ccc(OC)c(OC)c1)c1ccc(OC)cc1OC (centres undefined)
  Measles inh: -0.21
COc1ccc(NC(=O)CSc2nc3[nH]ncc3c(=O)n2-c2cccc(C)c2)c(OC)c1
  Measles inh: 0.18
COc1ccc(N2C(=O)NC3CC2(C)Oc2ccc(Cl)cc23)cc1 (centres undefined)
  Measles inh: -1.5
CC1(C)CC(=O)C(C2C3=C(CC(C)(C)CC3=O)OC3=C2C(=O)CC(C)(C)C3)=C(O)C1
  Measles inh: 0.54
COc1ccccc1C1C(C(=O)Nc2cc(C)ccn2)=C(C)NC2=C1C(=O)CC(C)(C)C2 (centres undefined)
  Measles inh: 1.9
O=C(CSc1nc2c(c(=O)n1-c1ccc(Br)cc1)SCC2)Nc1ccc(F)cc1
  Measles inh: -1.8
CC(=O)Oc1ccc2c(=O)c(Oc3ccc(Br)cc3)coc2c1
  Measles inh: 0.28
NS(=O)(=O)c1ccc(NC(=O)CN2C(=O)c3cccc4cccc(c34)C2=O)cc1
  Measles inh: -0.8
CCN(CC)C(=O)CSc1nc2ccc([N+](=O)[O-])cc2s1
  Measles inh: -0.07
O=C(CCC1N=C2c3ccccc3N=C(SCc3ccccc3F)N2C1=O)NC1CCCCC1 (centres undefined)
  Measles inh: -0.47
Cc1ccc(OCC(=O)Nc2ccc(-c3nc4cc(C)ccc4o3)cc2)c(C)c1
  Measles inh: 0.53
CCC(C)NC(=O)CSc1nc2ccccc2c2nc3ccccc3n12 (centres undefined)
  Measles inh: 0.16
COCC1=NC(Sc2c(-c3ccccc3)c3ccccc3[nH]c2=O)=NC(=O)C1
  Measles inh: -0.41
Cc1ccc2c(c1)C1CC(C)(O2)N(c2cccc(Cl)c2)C(=S)N1 (centres undefined)
  Measles inh: -0.24
Cn1cc(C(=O)NCCCN2CCN(c3ccccc3F)CC2)c2c3ccccc3n(C)c2c1=O
  Measles inh: 1.9
Cc1cc(C)c(N2C(=O)c3ccc(C(=O)Nc4cccc(I)c4)cc3C2=O)c(C)c1
  Measles inh: -0.15
O=c1cc(CSc2nnc(-c3ccccc3)c(-c3ccccc3)n2)nc2ccc(Br)cn12
  Measles inh: 2.9
COc1ccc(NC(=O)c2cc3n(n2)C(C(F)(F)F)CC(c2ccc(OC)c(OC)c2)N3)cc1Cl (centres undefined)
  Measles inh: 1.1
Cc1cccc(C)c1Nc1c(-c2ccccn2)nc2ccc(Cl)cn12
  Measles inh: -1.1
CCc1cccc(NC(=O)c2nn(-c3ccc(C)cc3)c(=O)c3c2c2ccccc2n3C)c1
  Measles inh: -0.24
Cc1ccc(C(=O)Nc2sc3c(c2C(=O)N2CCC(C)CC2)CCCC3)cc1
  Measles inh: 1.6

Cc1ccc(-c2noc(CCC(=O)N3CCC(C)CC3)n2)cc1
  Measles inh: -0.81
CN(C)c1ccc(C(O)(c2ccccc2)c2ccccc2)cc1
  Measles inh: -0.51
CCCSc1nnc2c(n1)OC(C(=O)c1ccc(OC)cc1)Nc1ccccc1-2 (centres undefined)
  Measles inh: 0.46
O=C(c1ccc(S(=O)(=O)c2ccccc2)cc1)N1CCCN(C(=O)c2ccc(S(=O)(=O)c3ccccc3)cc2)CC1
  Measles inh: -0.39
Cc1cc(C)c2c(N)c(C(=O)c3ccc4c(c3)OCO4)sc2n1
  Measles inh: 0.36
S=C1NN(c2ccccc2)C2=C(CCC2)S1
  Measles inh: -1.4
O=C(Nc1ccccc1Sc1ncnc2sc3c(c12)CCCC3)c1ccco1
  Measles inh: -0.93
O=C1C2C=NNC2C(=O)N1Cc1ccccc1 (centres undefined)
  Measles inh: -0.57
Cc1ccc(-c2nc3ccc(C)cn3c2Nc2ccc3c(c2)OCCO3)cc1
  Measles inh: -1.2
CCOc1ccc(-c2cn(-c3ccc(F)cc3)c(=O)[nH]2)cc1Cl
  Measles inh: 0.75
CCN1C(=O)N(C)C2C1N(CC)C(=O)N2C (centres undefined)
  Measles inh: 1.4
COc1ccc(Cl)cc1C(=O)Nc1ccc(NC(=O)c2ccco2)cc1
  Measles inh: -1.4
CC(C)(C)c1ccc(OCCNc2cc(N3CCCCC3)ccc2[N+](=O)[O-])cc1
  Measles inh: 1.4
O=C(c1cc(C(=O)N2CCc3ccccc3C2)cc([N+](=O)[O-])c1)N1CCc2ccccc2C1
  Measles inh: 0.05
COCCN1Cc2cccc(C(=O)Nc3ccc(OC)c(Cl)c3)c2C1=O
  Measles inh: 0.71
COc1ccc2c(c1)CCc1c(C(=O)NC3CCCCC3)noc1-2
  Measles inh: -0.83
O=C(O)CN1CCN(Cc2ccccc2)C1=O
  Measles inh: 0.35
Cc1c(C(=O)NC2CCCCC2C)oc2ccc(S(=O)(=O)N3CCOCC3)cc12 (centres undefined)
  Measles inh: 1.3
CC(=O)c1c(C)oc2ccc(N(C(=O)c3ccccc3Cl)S(=O)(=O)c3cccc([N+](=O)[O-])c3)cc12
  Measles inh: -0.31
COC(=O)C1=C(C)N(C)C(=S)NC1c1cccc(OC)c1 (centres undefined)
  Measles inh: -0.63
COc1cc(C=Cc2nc3ccccc3c(=O)n2-c2ccc(C)cc2)cc(OC)c1OC
  Measles inh: -0.08
CN(C)S(=O)(=O)c1ccc(C(=O)NCCSc2c(-c3ccc(Cl)cc3)[nH]c3ccccc23)cc1
  Measles inh: -1.2
CCOc1ccc(C(=O)Nc2ccc(-c3nc4cc(Cl)ccc4o3)cc2)cc1[N+](=O)[O-]
  Measles inh: 0.43
O=C(NCc1ccccn1)C(=O)N1CCCC1
  Measles inh: 1
CC(C)(C)Nc1cccccc1=NCc1ccccc1
  Measles inh: -0.42

Part of the list above, comma-delimited.
Compound,Measles inh
COC(=O)C1=C(C)N(C)C(=S)NC1c1cccc(OC)c1 (centres undefined),-0.63
COc1cc(C=Cc2nc3ccccc3c(=O)n2-c2ccc(C)cc2)cc(OC)c1OC,-0.08
CN(C)S(=O)(=O)c1ccc(C(=O)NCCSc2c(-c3ccc(Cl)cc3)[nH]c3ccccc23)cc1,-1.2
CCOc1ccc(C(=O)Nc2ccc(-c3nc4cc(Cl)ccc4o3)cc2)cc1[N+](=O)[O-],0.43
O=C(NCc1ccccn1)C(=O)N1CCCC1,1

The list goes on:
O=C(NCc1ccncc1)c1c(O)c2cccc3c2n(c1=O)CCC3
  Measles inh: -0.3
CC12CC(c3ccccc3O1)N(C(=O)c1cccs1)C(=O)N2c1ccc(Cl)cc1 (centres undefined)
  Measles inh: 1.3
CCc1ccc(CNS(=O)(=O)c2ccc3[nH]cc(C(=O)O)c(=O)c3c2)cc1
  Measles inh: -0.19
O=C1C2CCCCC2C(=O)N1CCC1=CCCCC1 (centres undefined)
  Measles inh: 0.36
Oc1cccc2ccc(C=Cc3ccc(Br)o3)nc12
  Measles inh: -0.13
CCOc1ccc(Nc2cc(C(=O)NC3CCCC3)c3ccccc3n2)cc1
  Measles inh: 1.3
Cc1ccccc1C(=O)Nc1cc2c(ccc3ccccc32)oc1=O
  Measles inh: 1.6
O=C(Nc1cccc(F)c1)c1cccc(Cl)c1
  Measles inh: -1.1
CC(=O)N(C1=C(NC(C)C)C(=O)c2ccccc2C1=O)c1cccc(Br)c1
  Measles inh: 0.69
CCCCCC(=O)N1c2ccccc2NC2=C(C(=O)CC(c3ccc(OC)cc3)C2)C1c1cccc(F)c1 (centres undefined)
  Measles inh: -0.21
O=C(c1cc2nc(-c3ccccc3)cc(-c3ccccc3)n2n1)N1CCCCCC1
  Measles inh: -1.9
CC1CCCC(NC(=O)c2cc(=O)[nH]c3ccc(Br)cc23)C1C (centres undefined)
  Measles inh: -1.7
OCCCc1nc2n(n1)C(c1ccccc1Cl)C=C(c1cccs1)N2 (centres undefined)
  Measles inh: -0.24
Nc1ccccc1Sc1ccc(S(=O)(=O)N2CCOCC2)cc1C(=O)O
  Measles inh: -0.02
Oc1ccc(Cl)cc1C=Nc1ccc(-c2nc3cc(Cl)ccc3o2)cc1
  Measles inh: -0.15
COc1ccc(CNC(=O)Cn2nc(-c3ccccc3)ccc2=O)c(OC)c1
  Measles inh: -0.7
Cc1ccc2nc(-c3cccc([N+](=O)[O-])c3)cc(C(=O)OCC(=O)c3ccccc3)c2c1
  Measles inh: -1.3
COc1ccc(-n2nc(C(=O)N3CCCCCC3)c3ccccc3c2=O)cc1
  Measles inh: -0.13
O=C(NCc1ccc(Cl)cc1)c1cc2nc(-c3ccccc3)cc(C(F)(F)F)n2n1
  Measles inh: 0.18
Cc1n[nH]c(C)c1Br
  Measles inh: -0.17
CCOC(=O)C1C(=O)C=C(c2cccs2)CC1c1ccccc1OCC (centres undefined)
  Measles inh: -0.32
COc1ccc(N2CCN(C3CC(=O)N(c4cccc(C)c4)C3=O)CC2)cc1 (centres undefined)
  Measles inh: 4.4
O=C(Nc1ccc2oc(-c3ccc(Br)cc3)nc2c1)c1ccc(-c2cccc([N+](=O)[O-])c2)o1
  Measles inh: -0.43
CCCCOCC1CC2(CC(C)(c3csc(N)n3)OC2=O)C(=O)O1 (centres undefined)
  Measles inh: -0.27
CC(C)(C)c1ccc2c(c1)N(CC(=O)N1CCN(c3ccccc3F)CC1)C(=O)CO2
  Measles inh: 0.39

Cc1cc2nn(-c3ccccc3)nc2cc1NC(=O)c1ccc([N+](=O)[O-])cc1Cl
  Measles inh: -0.68
CCOC(=O)C1(C)C=C(Nc2ccc(Br)cc2)C(=O)N1c1ccc(Br)cc1 (centres undefined)
  Measles inh: 0.79
Nc1nc(COc2ccc(F)cc2)nc(N2CCCCC2)n1
  Measles inh: -0.41
Cc1cc(Cl)nc(Cl)c1C(=O)NCc1ccc(Cl)cc1
  Measles inh: 0.13
COc1ccc(S(=O)(=O)N2CCN(C(=O)c3ccco3)CC2)cc1OC
  Measles inh: -0.15
Cc1ccc(C)c(N2CCN(S(=O)(=O)c3ccc(F)c(C(=O)Nc4cccc(Cl)c4C)c3)CC2)c1
  Measles inh: -0.14
CCOC(=O)CC(NC(=O)c1ccc([N+](=O)[O-])c(C)c1)c1ccc(OC)cc1 (centres undefined)
  Measles inh: 0.21
CC(C)CC(NC(=O)C1CCCCC1)C(=O)Nc1ccc(C(C)C)cc1 (centres undefined)
  Measles inh: 1.7
CCC1CCCCN1C(=O)CSc1nc2c(cnn2-c2ccc(F)cc2)c(=O)[nH]1 (centres undefined)
  Measles inh: -0.86
CCOC(=O)C1CCC(CN(Cc2ccccc2Cl)S(=O)(=O)c2ccc(C)cc2)CC1 (centres undefined)
  Measles inh: -0.49
O=C(c1cc2c(=O)[nH]c3ccccc3c2s1)N1CCN(c2ccc([N+](=O)[O-])cc2)CC1
  Measles inh: 0.31
CCOC(=O)C1=C(C)NC(C)=C(C(=O)OCC)C1c1ccc(OC)cc1
  Measles inh: 0.36
CC(C(=O)NCC1(c2ccccc2)CCCC1)N1CCOCC1 (centres undefined)
  Measles inh: -0.13
COc1ccccc1N1C(=O)CC(N2CCN(C(c3ccccc3)c3ccccc3)CC2)C1=O (centres undefined)
  Measles inh: -0.45
NC1=NC(=O)C(CC(=O)Nc2ccccc2SC(F)(F)F)S1 (centres undefined)
  Measles inh: 0.48
O=C(NCCCN1CCc2ccccc2C1)C1CCCN(S(=O)(=O)c2cccs2)C1 (centres undefined)
  Measles inh: 0.92
O=C(Cc1ccccc1)Nc1nnc(-c2ccccc2I)s1
  Measles inh: 0.21
COC(=O)c1ccccc1NC(=O)CSc1nnc(-c2ccccc2)n1-c1ccccc1
  Measles inh: 0.58
O=C(Nc1cc(C(F)(F)F)ccc1Cl)c1cc(S(=O)(=O)N2CCc3ccccc32)ccc1F
  Measles inh: -0.35
CC1CCc2cc(F)ccc2N1C(=O)c1ccc(N2CC3CC(C2)c2cccc(=O)n2C3)c(NC(=O)c2cccnc2)c1 (centres undefined)
  Measles inh: 0.65
O=C(CCSCc1ccc(Cl)cc1)NC1CCCC1
  Measles inh: -0.55
CCC(C)NC(=O)C(=O)NCC1COc2ccccc2O1 (centres undefined)
  Measles inh: 0.11
COc1ccc(-c2[nH]ncc2-c2ccccc2)c(O)c1C
  Measles inh: -2.3
COc1cc2c(cc1NC(=O)COc1cc(C)ccc1C)oc1ccccc12
  Measles inh: -0.57
COc1cc(C2C3=C(CC(C)(C)CC3=O)OC3=C2C(=O)CC(C)(C)C3)ccc1Oc1ccc(C(F)(F)F)cc1[N+](=O)[O-]
  Measles inh: 0.58

COc1ccc(Cc2cnc(NC(=O)COc3cccc(C)c3)s2)cc1
  Measles inh: 0.93
COc1ccc(C)cc1NC(=O)CN(c1cc(C(F)(F)F)ccc1Cl)S(C)(=O)=O
  Measles inh: -0.77
O=C(CCCn1c(=O)[nH]c2ccccc2c1=O)NCCC1=CCCCC1
  Measles inh: 0.43
CC(=O)c1cc2c(cc1NC(=O)c1cc3nc(-c4ccc(C)cc4)cc(C(F)(F)F)n3n1)OCO2
  Measles inh: -1
O=C(Nc1cccc(-c2nc3ccccc3o2)c1)c1cccnc1Cl
  Measles inh: 0.14
CCOC(=O)c1sc2nc(SCC(=O)N3CCCC3)n(Cc3ccc(C)cc3)c(=O)c2c1C
  Measles inh: 1.5
O=C(O)C(Cc1ccccc1)c1ccccc1 (centres undefined)
  Measles inh: 0.03
CC1(C)CC(=O)C2=C(C1)Nc1[nH]c(=O)[nH]c(=O)c1C2c1ccc(Br)cc1 (centres undefined)
  Measles inh: -0.1
COc1cc([N+](=O)[O-])ccc1NC(=O)c1c(C)nn(-c2ccccc2)c1Cl
  Measles inh: 0.59
O=[N+]([O-])c1cccc2c1NC(c1ccc(Br)cc1)C1CC=CC21 (centres undefined)
  Measles inh: -0.42
O=C(Cn1c(=O)n(-c2ccc(F)cc2)c(=O)c2sccc21)NCCC1=CCCCC1
  Measles inh: -0.43
CCCOc1ccc(C(=O)Nc2ccc(Cl)cn2)cc1
  Measles inh: 2.7
CCOC(=O)c1c(NC(=O)Cn2nc(C)c([N+](=O)[O-])c2C)sc2c1CCC(C)C2 (centres undefined)
  Measles inh: 2.1
Cc1cccc(C(=O)Nc2ccc(NC(=O)c3cccc4c(Br)cccc34)cc2)c1
  Measles inh: 0.86
COc1cc(NC(=O)CN2CCN(S(=O)(=O)c3ccc(C(C)C)cc3)CC2)cc(OC)c1
  Measles inh: 1.6

Screening results from PubChem.

This is a subset, so the mix of outcomes need not match the whole.
